# Screening data as filed in PubChem.
# Menin MLL FP FL: displaces fluorescein MLL peptide from human menin; Fluorescence polarization, fluorescein-MLL peptide displacement from menin; FP activity change, % at 61.4 µM; 290,000 tested, under 10 active; inconclusive = falling polarisation curve, or a change in total fluorescence; inactive = total fluorescence flat and polarisation flat or rising; no compound was filed as active; the % refers to the polarisation; negative = inhibition;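 further: % of control where 0% means no effect; inhibitors lower the polarisation; unlabelled MLL peptide was the positive control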
# PINK1 modulator: changes PINK1 expression; PINK1 immunofluorescence, high-content cytometry, 24 h; Potency, µM (doses to about 76.6 µM), inactives show at the highest dose activation (PINK1 increase), usual class: activators; 410,000 compounds, 0.2% hits; AID 624263; active = well fitted activation curve with a large enough effect; inconclusive = small, poorly fitted or top-dose-only effect; inactive = flat fitted curve, though single readings scatter; cell line not stated here;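 further: potency means the concentration at half of the fitted maximal effect; % of control where 0% means no effect; nearly all actives have a fitted effect of over 65% in size; a mitochondrial uncoupler was the plate control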
#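 Measures PINK1 amount and localization on or inside mitochondria by immunofluorescence. Stable cells get compounds at 5 concentrations for 24 hours before fixation and staining; CCCP controls included.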
# Sfp PPTase inh: Sfp phosphopantetheinyl transferase inhibition; Q9F4F7; Biochemical Sfp PPTase activity, qHTS; Potency, µM, for inactives: max response, negative = inhibition, actives largely listed as inhibitors; 310,000 compounds, 3.5% hits; active means well fitted inhibition curve with a large enough effect; inconclusive means small, poorly fitted or top-dose-only effect, or another doubt; inactive means no such curve, though single readings can be large or run the other way;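 further: the enzyme is Sfp with the accession as filed and its product quenches rhodamine fluorescence; potency means the concentration at half of the fitted maximal effect; 0% = enzyme reaction without inhibitor and -100% = no enzyme wells; top concentration of the series not given in the record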
#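 Sfp 15 nM + cpd, 15 min RT; start w/ rhodamine-CoA 5 uM, BHQ-2-YbbR 12.5 uM (final); 50 mM Hepes pH 7.6, 10 mM MgCl2, 0.01% NP-40, 0.01% BSA; read 525/598 nm at 0 and 30 min.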
# TRPML1 blocker: inhibitors of human TRPML1 channel | activity change, negative = inhibition, % (test concentration not listed) | TRPML1-inducible cells, Ca2+ dye fluorescence, FDSS; hits give low values; inhibition of EC80 agonist-evoked calcium signal | AID 624415 | 390,000 compounds, 0.02% hits; in the data active means activity change below about -50%; inconclusive means about -30% to -50%; inactive means above about -30%;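 further: stimulus is agonist 54-4 at its EC80 concentration; on the % scale 0 is the no-effect control and ±100 the full control effect; compound concentration not given in the record; the text of the record puts the active cut at -80%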
#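 TRPML1-DL cells, Tet-induced overnight (~16 h, 37 °C) at 1,500 cells/well, were loaded with Ca8 no-wash dye plus quencher for 45-90 min at room temperature. Compounds were pinned during FDSS kinetic reading; agonist 54-4 at EC80 (4 uM final) then added.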
# ClpP mod: qHTS Assay for Activators of ClpP | ATP-dependent Clp protease proteolytic subunit (Bacillus subtilis (strain 168)), P80244 | purified B. subtilis ClpP, FRET peptide cleavage, 20 min | Potency, µM (doses to about 57.5 µM), without a hit: at the highest dose activity change, negative = active | 340,000 compounds, 1.9% hits | AID 651965, 2013; active = well fitted falling curve with a large enough effect; inconclusive = small, poorly fitted or top-dose-only effect; inactive = no such curve, though single readings can be large or run the other way; further: potency means the concentration at half of the fitted maximal effect; the source files actives as falling curves though it sought activators and does not explain the sign; nearly all actives have a fitted effect of over 65% in size; many hits overshoot -100%
# Target sequence (P80244 whole entry, looked up): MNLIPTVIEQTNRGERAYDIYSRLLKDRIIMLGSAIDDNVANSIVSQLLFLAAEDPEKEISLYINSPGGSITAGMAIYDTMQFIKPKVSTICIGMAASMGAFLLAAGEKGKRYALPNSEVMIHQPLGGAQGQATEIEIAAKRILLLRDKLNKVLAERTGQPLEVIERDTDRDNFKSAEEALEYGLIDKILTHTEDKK
#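 Purified B. subtilis ClpP, 10 microg/mL final in Tris/HCl pH8 with KCl, BSA, glycerol and Tween-20, cleaved an Abz/nitrotyrosine-quenched decapeptide. Fluorescence (ex 320, em 430) was read at 0 and 20 min at room temperature. Delta was normalized to 5.8 microM ADEP and DMSO/no-enzyme controls.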
# TRPV1 potentiator: human TRPV1 potentiation; Q8NER1; TRPV1-expressing cells, Fluo-8 calcium influx, capsaicin EC20 potentiation; host cell line not named in the record; control for the full effect not named in the record; potentiation, % at 8.33 µM; 320,000 compounds, 0.02% hits; AID 540277; active means potentiation above 80%; inconclusive means 30% to 80%; inactive means below 30%; further: 0% is about no effect
# Target sequence (Q8NER1 whole entry, looked up): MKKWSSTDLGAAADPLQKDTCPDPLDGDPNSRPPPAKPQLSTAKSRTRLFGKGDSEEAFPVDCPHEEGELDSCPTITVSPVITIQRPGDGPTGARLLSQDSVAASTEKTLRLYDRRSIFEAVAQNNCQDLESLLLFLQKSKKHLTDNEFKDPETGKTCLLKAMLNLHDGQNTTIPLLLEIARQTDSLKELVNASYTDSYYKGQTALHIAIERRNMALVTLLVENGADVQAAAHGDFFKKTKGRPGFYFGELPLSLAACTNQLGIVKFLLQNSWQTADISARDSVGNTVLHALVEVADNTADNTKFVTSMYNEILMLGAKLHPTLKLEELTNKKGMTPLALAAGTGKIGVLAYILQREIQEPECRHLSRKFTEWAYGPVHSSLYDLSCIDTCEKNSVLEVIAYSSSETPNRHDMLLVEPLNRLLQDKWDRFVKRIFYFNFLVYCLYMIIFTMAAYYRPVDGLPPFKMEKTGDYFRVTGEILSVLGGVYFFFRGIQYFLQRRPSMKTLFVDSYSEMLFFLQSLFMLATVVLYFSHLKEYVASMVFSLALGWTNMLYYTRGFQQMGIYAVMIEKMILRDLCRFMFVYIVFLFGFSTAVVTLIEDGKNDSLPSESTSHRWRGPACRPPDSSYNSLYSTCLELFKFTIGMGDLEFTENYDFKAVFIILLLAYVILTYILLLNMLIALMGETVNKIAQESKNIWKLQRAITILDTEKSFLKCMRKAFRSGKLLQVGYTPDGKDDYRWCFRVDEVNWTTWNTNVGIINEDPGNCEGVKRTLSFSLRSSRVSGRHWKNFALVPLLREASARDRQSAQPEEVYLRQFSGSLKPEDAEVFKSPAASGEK
#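 TRPV1-expressing cells were cultured overnight at 35.5C and loaded with Fluo-8 calcium dye for 40 to 90 min at room temperature. After a 10 s baseline, compound was added and calcium influx was read kinetically for 3 min (ex 480/em 520 nm).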
# TRPML1 agonist: human mucolipin-1 channel agonism | 410,000 compounds, 0.12% hits | AID 624414 | activation, % (concentration not given with the values) | TRPML1-expressing cells, Ca2+ dye fluorescence, FDSS; host cell line not named in the record; reference of the full effect not given here; in the data active = activation above about 50%; inconclusive = about 30% to 50%; inactive = below about 30%; further: 0% is about no effect; the text of the record puts the active cut at 80%
#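 Calcium fluorescence on an FDSS kinetic reader gave the read-out. Tet-induced TRPML1-DL cells were plated overnight, dye-loaded (Ca8 with quencher, 45-90 min, room temperature, dark), then read 110 s after compound addition, and again 110 s after 4uM final 54-4 (EC80).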
# Active calls of the source: *; ? = inconclusive; . = no result given; [ ] = dose if it differs, or a comment. An unsorted share of the library. About 4.4% of those tested had a hit in this group.
SMILES,Menin MLL FP FL,PINK1 modulator,Sfp PPTase inh,TRPML1 blocker,ClpP mod,TRPV1 potentiator,TRPML1 agonist
O=C(CSc1ncc2c(n1)-c1ccc(Cl)cc1N(Cc1ccccc1)S2(=O)=O)Nc1ccc(F)c(F)c1,.,2.9%,.,?,-7.7%,.,0.7
COC(=O)c1ccc(Cl)c(NC(=O)c2ccc(-c3ccccc3)cc2)c1,-7.4,.,-6%,.,.,10,.
CS(=O)(=O)N1CCc2cc(S(=O)(=O)Nc3ccc4oc5c(c4c3)CCCC5)ccc21,3.2,.,2%,-6,-1.1%,11,-0.1
S=C(NCc1cccnc1)Nc1ccc(Cl)cc1Cl,-4.3,-0.1%,5%,-8,.,-8,1.3
COc1cccc(NC(=O)CN2CCN(c3ccccc3F)CC2)c1,0.5,-0.1%,20%,21,0.4%,-12,-1.0
COc1ccccc1N1CCN(C(=O)c2ccc(NC3=NC4CS(=O)(=O)CC4S3)cc2)CC1 (configuration not stated),-4.2,-0.7%,11%,0,-3.4%,-11,0.4
O=C(CSc1nnnn1C1CCCC1)Nc1ccc2c(c1)OCO2,-1.7,-2.0%[38.3 µM],10%,-8,-0.6%,4,0.3
O=C(CNC(=O)c1ccccc1F)N/N=C/c1cn[nH]c1-c1ccccc1,4.9,-1.5%,8%,-10,.,13,0.1
CC(C)N(Cc1cnn(C)c1)C(=O)c1ccc(OC2CCN(Cc3ccccn3)CC2)cc1,-0.2,1.4%,-13%,-4,1.4%,27,-0.3
COc1ccc(CNC(=O)CSc2ncc3c(n2)-c2ccc(Cl)cc2N(Cc2ccc(F)cc2)S3(=O)=O)cc1OC,.,0.6%,.,-10,1.6%,.,-0.9
CCCSc1nc(SCC(=O)NCc2ccccc2)c2c3c(sc2n1)COC(C)(CC)C3 (configuration not stated),3.3,14%,28%,-3,-1.9%,-1,-0.1
CCOc1cc(C(=O)OCc2cc(=O)n3c(C)csc3n2)ccc1OC,.,4.2%,.,-2,1.0%,.,2.3
COc1ccc(CC(=O)Nc2c3c(nn2-c2ccccc2C)CS(=O)C3)cc1 (configuration not stated),-0.1,-3.8%[38.3 µM],8%,5,-1.6%,2,0.0
Cc1nc2c(N)nn(C)c2nc1C,.,-0.6%,.,4,-3.0%,.,0.1
COc1ccccc1NS(=O)(=O)c1ccc2oc(SCc3ccc(F)cc3)nc2c1,5.5,8.6%,0%,16,0.4%,24,0.6
Cc1ccc(CCNC(=O)C2CCC(CNc3c(N4CCCC4)c(=O)c3=O)CC2)cc1 (configuration not stated),1.6,-1.8%,1%,31,1.1%,-3,0.1
CC(=O)C1=C(C)NC(SCC(N)=O)=C(C#N)C1c1cccnc1 (configuration not stated),-5.6,2.4%[38.3 µM],-11%,-17,-1.4%,?,0.3
Cc1cc(C)c(NC(=O)C(C)Sc2nc3ccc(N4C(=O)c5ccccc5C4=O)cc3s2)c(C)c1 (configuration not stated),0.6,4.0%[38.3 µM],10%,-10,-1.6%,9,0.6
O=C(Cn1cncc1-c1ccc([N+](=O)[O-])cc1)Nc1ccccc1F,.,?,-12%,3,0.0%,-11,0.0
O=C(c1ccccc1)c1ccc(OCC(O)CNCc2cccc(Cl)c2)cc1 (configuration not stated),-13,-2.9%,89µM*,-9,-0.8%,-10,0.0
CSc1ncc(C(=O)O)c(C)n1,1.9,0.7%,15%,4,1.2%,-1,-0.1
COc1cccc(C(=O)Nc2ccc(C(=O)NCC(C)C)cc2)c1,1.0,4.3%,6%,-2,-1.9%,-1,1.5
Cc1ccccc1-n1nnnc1SCC(=O)NNC(=O)c1ccc(NC(=O)CC#N)cc1,.,3.8%,.,-15,-1.2%,3,2.0
CC1(C(=O)N(Cc2ccccc2)Cc2ccccc2)CC1(Br)Br (configuration not stated),5.9,18%,-2%,18,-2.1%,-14,4.2
CNC(=O)C[C@H]1C(=O)N(CCc2ccccc2)C[C@@H]1CSC,.,-0.5%,.,-7,-0.1%,.,0.1
Cc1c(NC(=S)NC(=O)Cc2ccccc2)cccc1C(=O)O,0.0,4.6%,6%,-2,0.7%,?,-0.7
Cc1ccc(Cl)cc1NC(=O)COC(=O)c1ccc(COc2ccc3c(C)cc(=O)oc3c2)cc1,8.6,.,-3%,.,.,-1,.
O=C(Nc1ccccc1)c1nnn(Cc2ccccc2)c1NC(=O)C(F)(F)F,6.1,?,-13%,26,-2.7%,-11,10
COc1cc2c(cc1OC)CN(C(=O)CSC1=NCCS1)CC2,.,2.3%,.,-5,-4.8%,.,-0.8
COC(=O)C1=C(C)NC(C)=C(C(=O)OC)C1C(=O)OCc1nnc(-c2ccccc2)o1,.,1.3%,.,-9,-14%,7,0.1
COc1ccc2c(CC(=O)OCC(=O)Nc3cc(C)c(C)cc3[N+](=O)[O-])coc2c1,4.2,1.6%,10%,-5,-1.2%,12,-0.7
CC(C)CC(=O)NC1CC(=O)N(c2ccc3c(c2)OCCO3)C1 (configuration not stated),.,1.7%,.,-5,-7.9%,.,0.1
CC(C)c1ccc(NC(=O)c2ccccc2NC(=O)C2CCCCC2C(=O)O)cc1 (configuration not stated),-2.5,-1.2%,9%,-4,.,-18,0.0
Cc1cc(C)nc(Sc2ccc(/C=C(\C#N)C(=O)Nc3ccccc3)o2)n1,?,.,-24%,-1,0.3%,14,0.5
CC(=O)c1ccc(OCC(=O)Nc2ccc3nc(C)sc3c2)cc1,6.2,-0.4%,18%,2,1.8%,5,-0.3
O=C(Nc1cccc(S(=O)(=O)NCc2ccco2)c1)c1cccc(Cl)c1,.,2.3%,.,-1,-2.7%,.,1.3
COC(=O)c1ccc(COC(=O)c2ccc(N(C)C)cc2)cc1,6.9,7.6%[38.3 µM],-6%,3,-23%,-15,0.4
O=C(c1cccnc1)N1CCN(C(=O)c2cccc(Cl)c2)CC1,6.5,-1.0%,7%,1,-1.6%,7,0.3
CC(=O)OC[C@H]1O[C@@H](Oc2cc3ccc(=O)oc3cc2OC(C)=O)[C@H](OC(C)=O)[C@@H](OC(C)=O)[C@@H]1OC(C)=O,.,1.0%,.,16,4.9%,.,-0.9
Cc1noc(C)c1S(=O)(=O)N1CCC(C(=O)N2CCN(C3CCCC3)CC2)CC1,-1.7,.,6%,.,.,5,.
CCCCNc1nc(C)c(C(C)=O)cc1C#N,-7.1,-0.7%,13%,2,.,-2,3.0
COC(=O)[C@H](C)NC(=O)c1cc2c(cn1)[nH]c1ccccc12,.,1.1%,8.9µM*,-2,.,?,-0.5
Cc1ccc2c(C)cc(=S)[nH]c2c1,5.3,2.3%,6%,24,-1.5%,4,2.9
Cc1ccc(C)c(Nc2cc(C(=O)NCCCN(C)C3CCCCC3)c3ccccc3n2)c1,.,-1.4%,.,-10,-3.9%,.,0.3
Cc1ccc(SCCC(=O)Nc2ccc(Br)c(C)c2)cc1,6.2,?,-8%,-6,-5.8%,3,3.4
CCOC(=O)N/N=C(C)/C=C/c1ccccc1,3.9,0.5%,17%,2,0.5%,?,1.0
O=C(NC1(C(F)(F)F)NC(=O)N(Cc2cccnc2)C1=O)c1ccc(F)cc1 (configuration not stated),1.4,-1.0%,19%,-11,0.1%,-5,-1.2
COC(=O)c1nn(-c2ccccc2)c(Sc2ccc(OC)cc2)c1/C=N/O,1.7,0.0%,1%,-17,-1.4%,18,-0.1
COc1ccc(C(=O)O)cc1S(=O)(=O)N1CCCc2ccccc21,0.0,-0.2%,18%,20,-0.6%,-12,1.1
C=CCOc1c(Br)cc(CNn2cn[nH]c2=S)cc1OC,-2.8,-2.0%,-10%,1,.,8,1.7
C=CCC1NCCc2c(Br)cccc21 (configuration not stated),1.1,0.5%,25%,-6,.,1,0.1
COc1ccc(NC(=O)CSc2nnc(-c3ccccc3)n2Cc2ccco2)c(OC)c1,4.8,2.2%,?,1,-1.7%,5,2.1
CCOC(=O)CSc1nc(-c2ccc(OCC)cc2)cc(C(F)(F)F)c1C#N,.,-0.8%,.,0,?,.,1.9
COc1cccc(C(=O)C2CCCN(Cc3cn(CC(N)=O)c4ccccc34)C2)c1 (configuration not stated),0.9,-3.7%,4%,-8,.,-18,0.0
CC(O)[C@H]1CNC(=O)C(=O)N1CC1CCCCC1 (some centres not stated),3.8,1.0%,-7%,-3,0.8%,0,0.0
CCCC(=O)NCCc1cc(OC)c(OC)cc1Br,-1.3,2.2%,19%,-2,0.8%,28,-0.4
CCc1ccc(-c2cn3c(n2)sc2cc(C(=O)NCCc4ccc(OC)cc4OC)ccc23)cc1,.,1.2%,.,36,?,.,-0.3
CCOc1cc(/C=N/Nc2nnc(C)n2N)ccc1OC(C)=O,-1.0,0.0%,?,5,-1.0%,-1,-1.5
Cc1cccc(C)c1-n1c(SCC(=O)Nc2ccc(C(=O)O)cc2)nnc1-c1cccc(S(=O)(=O)N(C)C)c1,2.4,1.2%,-7%,37,-1.0%,-1,1.5
CC(=O)N1CCN(C(C)=O)C1c1ccccc1,-1.9,2.7%,24%,15,1.0%,17,-0.7

# Additional entries:
SMILES,Menin MLL FP FL,PINK1 modulator,Sfp PPTase inh,TRPML1 blocker,ClpP mod,TRPV1 potentiator,TRPML1 agonist
O=C(NCC1CCCO1)C1CCCN(Cc2cnn(-c3ccccc3)c2-n2cccc2)C1 (configuration not stated),-1.4,3.1%,14%,7,-0.1%,-7,-0.8
COc1cc([N+](=O)[O-])cc2cc(C(=O)NC(C)(C)C)c(=O)oc12,0.9,-0.3%,8%,11,.,5,1.9
CNC(=O)CSc1nc2c(c(=O)n(C)c(=O)n2C)n1Cc1ccc(C)cc1,-0.3,1.7%[38.3 µM],3%,32,0.4%,9,-0.2
O=C(NCc1ccco1)C1CCN(C(=O)c2cc3sccc3n2Cc2ccc(Cl)cc2)CC1,2.4,-1.5%[38.3 µM],-2%,27,-2.0%,8,1.4
O=C(C1CCCCC1)N1CCN(S(=O)(=O)c2cccc([N+](=O)[O-])c2)CC1,.,0.4%,14%,-2,0.8%,-12,-0.7
Cc1nnc(NC(=O)CSc2nnc(CNC(=O)c3ccc(S(=O)(=O)N(C)C)cc3)o2)s1,0.7,2.6%,-4%,-3,-8.0%,-1,0.0
